Assay outcomes: PubChem, several laboratories
Ecoli growth – E. coli growth inhibition, primary screen, OD600; Escherichia coli growth, 23 h; stronger effect = lower value; AID 1053175, 2014; 330,000 compounds, 0.21% hits; OD600 absorbance (no concentration beside the values);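 active = OD600 absorbance below the run mean of sample wells minus 3.6 SD, in any replicate, cut at about 0.56 in these data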;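 also: stock transfer was 300 nL into about 60 µL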
FGF22 binding – binders of human FGF22 protein, primary screen, FGF22 synaptogenesis inhibitor project, biophysical, thermal shift, single point. 340,000 compounds, 1.5% hits. recombinant FGF22 thermal shift, SYPRO orange fluorescence; percent of sucrose octasulfate shift, DMSO zero. calls only at 9.99 µM;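 active = melting point raised past a set limit in the mean and every replicate; three in four hits are not shown here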
Target sequence (Q9HCT0 whole entry, looked up): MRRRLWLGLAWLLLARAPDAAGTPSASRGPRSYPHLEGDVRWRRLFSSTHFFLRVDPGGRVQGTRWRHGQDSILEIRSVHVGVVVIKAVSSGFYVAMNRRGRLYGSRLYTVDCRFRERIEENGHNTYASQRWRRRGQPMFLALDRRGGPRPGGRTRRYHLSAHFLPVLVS
UCH37 DUB inh – inhibitors of human UCH37 deubiquitinase, primary screen, biochemical, Ub-AMC cleavage, fluorescence; 330,000 compounds, 0.33% hits; inhibition, % (test concentration not listed); Ubiquitin carboxyl-terminal hydrolase isozyme L5 (Homo sapiens), Q9Y5K5; purified proteasome/UCH37;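 active = mean of two replicates above 20%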;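 also: 0% = compound-free wells with enzyme and 100% = wells lacking proteasome; stock transfer was 100 nL into about 20 µL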
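System: Proteasome-associated human UCH37 deubiquitinase; Input: 0.15 nM proteasome in added enzyme buffer; Also added: Ub-AMC substrate from 1 µM stock; Incubation: 30 min compound-proteasome preincubation then 25 min substrate reaction, room temperature; Detection: fluorescence, ex 355 nm, em 460 nm; Read-out: % inhibition of Ub-AMC cleavage fluorescence; Benchmarks: no-proteasome and no-compound wells.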
B2AR ag – beta2AR agonists driving receptor internalization, primary screen, cell-based, FAP fluorogen, flow cytometry; response, % (concentration not given with the values); Beta-2 adrenergic receptor (Homo sapiens), P07550; 340,000 compounds, 0.43% hits; Am2.2-beta2AR cells; reference of the scale not given here;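 active = response above a set limit, near 3 SD of response in nonfluorescent compounds, cut at about 42% in these data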;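 also: stock transfer was 100 nL into about 11 µL; a reference agonist was the positive control; negative values mostly stem from fluorescent compounds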
Target sequence (P07550 whole entry, looked up): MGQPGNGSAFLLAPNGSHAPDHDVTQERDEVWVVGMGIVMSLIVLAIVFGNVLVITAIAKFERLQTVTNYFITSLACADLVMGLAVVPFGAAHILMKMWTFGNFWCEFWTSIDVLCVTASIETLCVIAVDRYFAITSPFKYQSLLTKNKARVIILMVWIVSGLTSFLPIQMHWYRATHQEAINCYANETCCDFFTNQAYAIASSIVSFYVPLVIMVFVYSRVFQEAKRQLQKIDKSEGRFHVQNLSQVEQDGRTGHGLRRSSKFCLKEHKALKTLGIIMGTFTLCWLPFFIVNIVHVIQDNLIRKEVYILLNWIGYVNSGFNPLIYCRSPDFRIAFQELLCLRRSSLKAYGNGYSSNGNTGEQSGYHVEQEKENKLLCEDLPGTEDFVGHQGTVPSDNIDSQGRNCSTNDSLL
HNF4A DNA FP – change in binding of human HNF4A to DNA, primary screen, biochemical, fluorescence polarization, FITC-DNA; 360,000 compounds, 0.3% hits; Hepatocyte nuclear factor 4-alpha (Homo sapiens), P41235; 1 h; activity change, % at 10 µM; in the data active = activity change above about 30%, passing the limit was not always enough;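 also: controls were the assay level and a saturating level of protein; the project sought stronger binding though the title names inhibitors; some compounds called inactive have numbers as strong as hits; positive values seem to mean higher polarization but the record does not say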
Target sequence (P41235 whole entry, looked up): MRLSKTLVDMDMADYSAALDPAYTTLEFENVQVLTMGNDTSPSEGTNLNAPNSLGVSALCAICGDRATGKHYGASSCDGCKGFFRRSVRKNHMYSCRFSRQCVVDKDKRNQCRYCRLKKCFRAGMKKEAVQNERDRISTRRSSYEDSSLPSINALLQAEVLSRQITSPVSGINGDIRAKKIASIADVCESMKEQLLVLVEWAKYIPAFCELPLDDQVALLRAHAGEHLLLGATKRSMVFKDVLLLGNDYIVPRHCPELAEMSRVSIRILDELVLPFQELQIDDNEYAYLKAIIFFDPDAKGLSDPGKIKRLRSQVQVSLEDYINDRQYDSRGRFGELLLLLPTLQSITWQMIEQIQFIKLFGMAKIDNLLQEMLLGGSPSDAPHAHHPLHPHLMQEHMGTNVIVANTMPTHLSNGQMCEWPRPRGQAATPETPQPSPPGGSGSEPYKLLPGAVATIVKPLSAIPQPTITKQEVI
rRNA inh HTS – reduced GFP signal of wild-type E. coli, primary screen, bacterial rRNA inhibitor project, GFP/RFP fluorescence, OD600, single point; E. coli WT GFP vs humanized-ribosome RFP mutants, 24 h; stronger effect = lower value; DMSO median 0, no signal -100; GFP signal change (wild-type ribosome), % (test concentration not listed); AID 720706, 2013; 350,000 compounds, 1.6% hits;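 active = significant combined selectivity score with lowered wild-type GFP, culture density cut under 30%, mutant RFP and density less affected; inactive = any of these conditions unmet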; also: one replicate is shown; some compounds called inactive have numbers as strong as hits
ALR inh – inhibitors of human ALR sulfhydryl oxidase, primary screen, biochemical, H2O2 detection, HRP-luminol luminescence, single point; purified ALR, DTT oxidation; inhibition, % (test concentration not listed); 290,000 compounds, 3.8% hits;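 active = mean and each replicate at 75% or more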;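 also: stock transfer was 7.5 nL into about 7.5 µL; 0% = neutral wells and 100% = wells with inactivated enzyme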
rRNA inh HTS OD600 – further read-out of rRNA inh HTS, marked with its call; OD600 change, %; measured here: OD600 growth;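 optical density of the mix in the first replicate; 0 = DMSO median and -100 = no signal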
rRNA inh HTS RFP – second read-out of rRNA inh HTS, no call of its own (marks repeat the call); RFP signal change, %; measured here: RFP humanized mutant strains;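 first replicate; 0 = DMSO median and -100 = no signal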
The depositor's hits bear a star; i = inactive; . = no result given; & = joins results of further samples.

SMILES | Ecoli growth | FGF22 binding | UCH37 DUB inh | B2AR ag | HNF4A DNA FP | rRNA inh HTS | rRNA inh HTS OD600 | rRNA inh HTS RFP | ALR inh
CCCNC(=O)C1CC(=O)N(c2ccc(OCC(=O)Nc3cccc(C)c3C)cc2)C1 (stereo not drawn) | 0.7 | i | 2.9 | 2 | -2.0 | 8 | 9 | -0.3 | .
Cc1sc2nc(CN(Cc3cccs3)C(=O)C3CC3)[nH]c(=O)c2c1C | 0.68 | . | 2.1 | -7 | 2.8 | . | . | . | -1
COc1ccc(S(=O)(=O)N2CCCN(C)CC2)cc1 | 0.69 | i | 0.6 | -1 | -2.6 | 8 | 17 | -0.4 | -22
COc1cc(C(=O)NC2CCCCC2)ccc1OC1CCN(C(C)=O)CC1 | 0.72 | i | 0.4 | 0 | 2.1 | 5 | 5 | -2.5 | 1
CCC/C(=N/NC(=O)c1nnn(-c2nonc2N)c1CN1CCCCC1)c1ccccc1 | . | i | . | 6 | 10 | 2 | 4 | 0.3 | -2
CC(C)CCNC(=O)CN(CCCN1CCOCC1)C(=O)Cn1nnc(-c2ccc(F)cc2)n1 | 0.67 | . | 4.2 | 1 | 1.5 | . | . | . | .
Cc1cc(C)cc(N(CC(=O)NC2CCCCC2)C(=O)c2csnn2)c1 | 0.71 | i | 1.7 | -12 | -1.6 | 3 | 7 | -3.3 | 1
COc1ccc(Nc2cc(C)c3ccccc3n2)cc1 | 0.66 | i | -30 | -1 | -2.0 | -49 | -77 | -10 | .
COc1ccc(OCc2nnc(SCC(=O)NCc3ccco3)o2)cc1 | 0.71 | . | 4.7 | 1 | 5.6 | . | . | . | 1
O=C(NCc1csc(-c2cccs2)n1)Nc1cccc(Cl)c1 | 0.67 | i | -9.3 | -4 | 0.2 | 5 | 11 | -1.8 | -5
Cc1ccc(S(=O)(=O)CC2CSc3nnc(C)c(=O)n32)cc1 (stereo not drawn) | 0.67 | . | 1.5 | -1 | 5.7 | . | . | . | -24
COc1cccc(NC(=O)COc2ccc(Br)c(C)c2)c1 | 0.61 | i | 5.8 | 1 | -2.8 | -10 | -29 | 1.2 | -11
Cc1cc(C)n2nc(SCC(=O)Nc3ccc(F)cc3[N+](=O)[O-])nc2n1 | 0.67 | i | 2.1 | -2 | 0.2 | . | . | . | .
Cc1ccc(C(C)n2cc(C(=O)NCCN3CCN(C)CC3)nn2)cc1 (stereo not drawn) | 0.68 | . | 1.8 | -9 | 2.5 | . | . | . | -20
Cc1cccc(NS(=O)(=O)c2ccc3oc(=O)ccc3c2)c1C | 0.69 | i | 5.6 | 1 | 0.2 | -27 | -28 | -6.3 | 3
O=C(NCc1ccc2c(c1)OCO2)C1CCC(CNS(=O)(=O)c2ccccc2)CC1 (stereo not drawn) | 0.74 | . | -6.6 | -8 | -2.7 | . | . | . | -3
COc1ccc(NC(=O)COC(=O)C23CCC(=O)N2c2ccccc2S3)cc1 (stereo not drawn) | 0.61 | . | 0.5 | 5 | 1.8 | . | . | . | 1
CCCCCOc1ccc(CSCCNC(=S)Nc2ccccc2)cc1 | 0.6 | . | 1.7 | -7 | 0.0 | . | . | . | -3
Cc1c(NC(=O)C(C)Oc2ccc(Br)cc2Cl)c(=O)n(-c2ccccc2)n1C (stereo not drawn) | 0.68 | i | 7.0 | -7 | 1.2 | 0 | 8 | -1.9 | -3
COc1ccc(Cl)cc1NC(=O)COC(=O)CCc1cc(OC)c(OC)c(OC)c1 | 0.66 | i | 3.0 | -2 | 0.3 | -9 | -17 | 6.9 | .

4 entries from above, reformatted:
canonical_smiles	Ecoli growth	FGF22 binding	UCH37 DUB inh	B2AR ag	HNF4A DNA FP	rRNA inh HTS	rRNA inh HTS OD600	rRNA inh HTS RFP	ALR inh
COc1cccc(NC(=O)COc2ccc(Br)c(C)c2)c1	0.61	i	5.8	1	-2.8	-10	-29	1.2	-11
Cc1cc(C)n2nc(SCC(=O)Nc3ccc(F)cc3[N+](=O)[O-])nc2n1	0.67	i	2.1	-2	0.2	.	.	.	.
Cc1ccc(C(C)n2cc(C(=O)NCCN3CCN(C)CC3)nn2)cc1 (stereo not drawn)	0.68	.	1.8	-9	2.5	.	.	.	-20
Cc1cccc(NS(=O)(=O)c2ccc3oc(=O)ccc3c2)c1C	0.69	i	5.6	1	0.2	-27	-28	-6.3	3

More results.
SMILES | Ecoli growth | FGF22 binding | UCH37 DUB inh | B2AR ag | HNF4A DNA FP | rRNA inh HTS | rRNA inh HTS OD600 | rRNA inh HTS RFP | ALR inh
Cn1c(Cc2csc(N)n2)nnc1SCC(=O)NC1CCCCC1 | 0.72 | . | 0.6 | 2 | -0.4 | . | . | . | .
O=C(COC(=O)c1cc(=O)[nH]c2ccccc12)NC1CCCCC1 | 0.7 | i | -19 | -4 | 0.9 | 2 | -3 | -3.8 | .
CC(C)CNC(=S)NNC(=O)c1ccccc1OC(F)F | 0.74 | . | 2.4 | -4 | -1.3 | . | . | . | 34
CCN(CC)CCN1C(=O)C(=O)/C(=C(/O)c2c(C)[nH]c(C(=O)OC)c2C)C1c1cccc(OC)c1 (stereo not drawn) | 0.63 | . | 13 | 0 | -1.4 | . | . | . | 1
O=C(CNc1cccc([N+](=O)[O-])c1)NC(=O)NC1CCCCC1 | 0.73 | i | 4.9 | -5 | 2.5 | 19 | -4 | 18 | 1
CCOC(=O)c1c(NC(=O)c2cccs2)sc(C)c1C | 0.77 | . | -6.9 | -7 | -6.1 | . | . | . | -4
CCOc1ccc(C/C(O)=C2\C(=O)CC(C)(C)CC2=NCC(=O)O)cc1OCC | . | i | -0.4 | 8 | -0.6 | 1 | 4 | 1.0 | 0
CCOc1ccc(N(CC(=O)NC2CCCCC2)C(=O)CNC(=O)c2cccs2)cc1 | 0.61 | i | -2.7 | -4 | -1.5 | 4 | -3 | -1.5 | .
O=C(NC(=S)Nc1ccccc1Cl)c1csnn1 | 0.69 | i | 1.4 | -23 | -1.5 | 0 | 12 | 3.3 | 10
O=C1CCCCCN1C(=O)c1ccc(C(=O)N2CCCCCC2=O)cc1 | 0.77 | . | 3.3 | 4 | -2.3 | . | . | . | 1
Brc1ccc2[nH]c3c(NCc4ccccn4)ncnc3c2c1 | 0.56 | i | 0.7 | -2 | 2.6 | -58 | -76 | -14 | 3
C/C(Cc1ccccc1)=N\NC(=O)CNC(=O)c1ccccc1Br | . | . | . | 0 | 0.8 | . | . | . | 7
CCOC(=O)C1CCN(Cc2coc3ccc(Cl)cc3c2=O)CC1 | 0.7 | . | 3.5 | -4 | 0.4 | . | . | . | -11
COc1ccc(Cc2nc3ccc(C(=O)N4CCCN(C=O)CC4)cc3o2)cc1 | 0.65 | i | 2.4 | 5 | 1.6 | 4 | 8 | -3.3 | -2
CCCCNC(=O)/C=C/c1ccc(S(=O)(=O)Nc2ccc(OC)cc2)cc1 | 0.72 | i | 1.4 | 0 | -9.2 | -25 | -26 | 6.5 | -16
CN(C)CCSc1nc(-c2ccccc2)nc2c1COC(C)(C)C2 | 0.7 | . | 3.0 | -5 | 0.1 | . | . | . | .
COC(=O)[C@@]12C[C@@H](CC(=O)N3CCCC3)C(=O)N(Cc3cccc4ccccc34)C1=CCC(C)(C)C2 | . | i | . | . | 6.3 | -15 | -28 | 1.9 | .
CCc1cccc(CC)c1NC(=O)c1ccccc1CCc1ccccc1 | 0.68 | . | 1.4 | 7 | -0.3 | . | . | . | -8
CNC(=O)Nc1cc(NC(=O)NC)cc(C(F)(F)F)c1 | 0.69 | i | 3.7 | -17 | 0.5 | 8 | -3 | -1.5 | -2
CCOC(=O)c1c(C)[nH]c(C(=O)CN2C(=O)C(=O)N(CC(C)C)C2=O)c1C | 0.72 | i | 6.7 | 8 | 1.6 | 10 | 12 | 2.2 | .
COC(=O)c1cnc(Nc2nc(C(N)c3ccccc3Cl)cs2)nc1C(F)(F)F (stereo not drawn) | . | i | . | . | -2.4 | -56 | -79 | -18 | .
COc1cccc(S(=O)(=O)Nc2cccnc2)c1 | 0.69 | . | 6.1 | -3 | 3.2 | . | . | . | -3
COc1ccc(S(=O)(=O)N2CCC(C(=O)NCc3cccs3)CC2)cc1 | 0.76 | i | -1.8 | 0 | 2.6 | -1 | 1 | -3.2 | -11
Cc1ccc(-c2nnn(CC(=O)N(c3cccc(F)c3)C(C(=O)NC3CCCC3)c3ccco3)n2)o1 (stereo not drawn) | 0.7 | i | -0.2 | 9 | 4.6 | 11 | 4 | -9.1 | .
CCN(CC(=O)NCCCN1CCOCC1)S(=O)(=O)c1ccc(F)cc1 | 0.66 | i | 0.5 | 3 | 0.6 | 4 | 6 | -1.6 | .
C[C@H](CO)N1C[C@H](C)[C@@H](CN(C)Cc2ccc(C(=O)O)cc2)Oc2c(NS(=O)(=O)c3ccccc3)cccc2C1=O | 0.76 | i | 2.9 | -8 | 1.8 | -2&17 | 0&16 | -3.0&-5.6 | 2
FC(F)(F)c1cccc(Sc2cc(C(F)(F)F)nc(-c3ccccn3)n2)c1 | 0.69 | . | -1.9 | -21 | 0.2 | . | . | . | 13
Cc1cc(C)c2nc(SC3CCOC3=O)cc(C)c2c1 (stereo not drawn) | 0.71 | i | 3.4 | -13 | -3.0 | 0 | 2 | 1.3 | 6
Cn1cnnc1SCC(=O)NCc1cccc(C(F)(F)F)c1 | 0.62 | i | -0.7 | 5 | 1.9 | 21 | 8 | 3.4 | 9
CCOC(=O)C1(C)CCCCN1C(=O)c1ccc(N(C)C)cc1 (stereo not drawn) | . | i | . | . | 0.4 | 6 | 1 | -0.5 | .
CCOc1ccc(C(=O)Nc2c3c(nn2-c2ccc(F)cc2)CS(=O)C3)cc1 (stereo not drawn) | 0.76 | . | 0.8 | -2 | -1.0 | . | . | . | -5
O=C(NCc1ccccc1)/C(=C\c1ccc([N+](=O)[O-])cc1)NC(=O)c1ccco1 | 0.63 | i | 8.7 | -4 | 1.4 | -3 | -14 | -0.1 | -4
COc1cc2sc(-c3ccc(S(C)(=O)=O)cc3)c(-c3ccc4c(c3)OCO4)c2cc1OC | 0.71 | i | -23 | -2 | 1.2 | 4 | 3 | -0.9 | 2
COc1ccc(NC(NC(=O)c2ccc(OC)cc2)C(Cl)(Cl)Cl)cc1 (stereo not drawn) | . | . | . | 5 | -0.3 | . | . | . | 98*
Cc1cc(C(=O)OCC(=O)Nc2nccs2)c2ccccc2n1 | 0.73 | i | 2.3 | 3 | -0.4 | 2 | -4 | -2.0 | -1
CCc1nnc(NC(=O)CSc2nc3ccccc3c(=O)n2CCCOC)s1 | 0.71 | . | 5.3 | -21 | 0.4 | . | . | . | -31
CCN1CCCC(CO)(Cc2ccccc2)C1 (stereo not drawn) | 0.68 | . | 2.6 | 1 | 2.0 | 20 | 13 | 0.2 | -2
Cc1cccc(Cn2c(=O)oc3ccc(C)cc32)c1 | 0.69 | . | -0.4 | -4 | 0.3 | . | . | . | -2
Cc1ccc(S(=O)(=O)N(CC(=O)NC2CC3CCC2C3)c2ccccc2)cc1 (stereo not drawn) | . | i | . | . | 4.2 | 8 | 11 | 1.7 | .
COc1ccc2cnn(Cc3ccccc3)c(=O)c2c1OC | 0.76 | . | -8.5 | -10 | -2.4 | . | . | . | -20

An excerpt (hit frequency here may not be typical).
